Source: PubChem BioAssay (National Center for Advancing Translational Sciences (NCATS))
HPGD inh – HPGD (human) dehydrogenase inhibition; P15428; purified HPGD, NADH fluorescence kinetic, PGE2 substrate; Potency, µM, inactives show at the top dose activity change, negative = inhibition, most hits filed as inhibitors; 150,000 compounds, 4.3% hits; AID 894; active = well fitted inhibition curve with a large enough effect (not every such curve was filed as active); inconclusive = small, poorly fitted or top-dose-only effect, or another doubt; inactive = no such curve, though single readings can be large or run the other way;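 further: top concentration of the series not given in the record; plate controls included wells without enzyme; inactives centre near -10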
Target sequence (P15428 whole entry, looked up): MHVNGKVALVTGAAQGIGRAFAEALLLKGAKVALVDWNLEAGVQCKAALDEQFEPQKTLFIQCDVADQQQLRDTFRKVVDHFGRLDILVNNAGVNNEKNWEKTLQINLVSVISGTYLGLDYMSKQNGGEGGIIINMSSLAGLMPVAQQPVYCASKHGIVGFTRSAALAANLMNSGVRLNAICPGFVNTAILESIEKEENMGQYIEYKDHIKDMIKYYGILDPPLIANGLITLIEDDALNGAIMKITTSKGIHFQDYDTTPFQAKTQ
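20 nM HPGD preincubated 15 min at room temperature with compound in 50 mM Tris-HCl pH 8, 0.01% Tween 20. Started with 1 mM NAD+ and 30 uM prostaglandin E2; NADH fluorescence (360/450 nm) read 5 times over 30-s intervals, last minus first.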
Active calls of the source: *; ? = inconclusive; & = joins results of further samples. On the % scale 0 is the no-effect control and ±100 the full control effect; potency means the concentration at half of the fitted maximal effect. An excerpt; count on the stated rates, not on these rows.

SMILES	HPGD inh
Cc1ccc(-n2nc(C)c3c(C(=O)OCC(=O)N(C)C4CCS(=O)(=O)C4)cc(-c4ccccc4)nc32)cc1 (configuration not stated)	-30%
O=C1NC(Cc2c[nH]c3ccccc23)C(=O)N1CCOc1ccccc1 (configuration not stated)	3%
O=C(O)c1cc([N+](=O)[O-])c(N2CCCC2)c([N+](=O)[O-])c1	-26%
O=C(CNC(=O)c1ccccc1F)N/N=C/c1cc(Br)ccc1OC(=O)/C=C/c1ccco1	-28%
CC(/C=N/NC(=O)c1ccncc1)=C\c1ccccc1	-12%
CCc1nnc(N/N=C/c2ccccc2Cl)n1N	-24%
CCc1c(C(=O)Nc2ccc(S(=O)(=O)N3CCOCC3)cc2)csc1C	-15%
Nc1nnc(-c2ccc(Cl)cc2)s1	-18%
O=C(CCNC(=O)c1ccc(Cl)cc1)Nc1c(F)c(F)cc(F)c1F	-5%
CCSC1=N/C(=C\c2ccc(C(=O)O)cc2)C(=O)S1	-24%
Cc1ccnc(NS(=O)(=O)c2ccc(NC(=O)c3ccc(S(=O)(=O)N4CC(C)OC(C)C4)cc3)cc2)n1 (configuration not stated)	-10%
O=C(COC(=O)[C@H](Cc1ccccc1)NC(=O)c1cccs1)Nc1ccccc1C(F)(F)F	-7%
COP(=O)(OC)c1nc(-c2ccccc2)oc1N1CCOCC1	?
CC(C)[C@H]1c2ccc(F)cc2CC[C@@]1(CCN(C)CCCc1nc2ccccc2[nH]1)OC(=O)C1CC1	-11%
CN(N=O)C(=O)N[C@H]1C(O)C(O)C(CO)O[C@@H]1O (some centres not stated)	0%
CN(C)S(=O)(=O)c1cccc(-c2nn(-c3ccccc3)cc2/C=C2\SC(=S)NC2=O)c1	16µM*
Nc1cc(N)nc(SCCOc2ccccc2F)n1	-21%
Cc1cc(C)c2c(CC(=O)Nc3nccs3)coc2c1	-23%
CCc1nc(Cl)c(C#N)c2c1CCCC2	-11%
Cc1cc(C)cc(NC(=O)Cc2ccc(-n3cccc3)cc2)c1	1%

Structural class, those above with an NH in an aromatic ring (2)
SMILES	HPGD inh
O=C1NC(Cc2c[nH]c3ccccc23)C(=O)N1CCOc1ccccc1 (configuration not stated)	3%
CC(C)[C@H]1c2ccc(F)cc2CC[C@@]1(CCN(C)CCCc1nc2ccccc2[nH]1)OC(=O)C1CC1	-11%

Next part:
SMILES	HPGD inh
COCCCNC(CC(=O)Nc1ccc(OC)cc1OC)C(=O)O (configuration not stated)	-4%
Cc1cccc(NC(=O)CN2C(=O)COc3ccc(Cl)cc32)c1C	-5%
Cc1ccc(NC(=O)C2CCN(S(=O)(=O)c3cccs3)CC2)cc1C	-4%
COC(=O)c1ccc(C(=O)OC)c(NS(C)(=O)=O)c1	-2%
COc1ccc(C(=O)Nc2nnc(-c3cccs3)s2)cc1	?
O=c1cc(N2CCN(c3ccccc3)CC2)[nH]c(=O)n1C1CCCCC1	-3%
COc1ccc(N(CC(=O)NCc2ccco2)S(=O)(=O)c2ccc(OC)c(OC)c2)cc1	-3%
O=C(O)CCCC[C@@H]1SC[C@H]2NC(=O)N[C@@H]12	4%
Cc1ccccc1NS(=O)(=O)c1ccc(C2CNC(=O)C2)cc1 (configuration not stated)	-17%
COc1cccc(/C=N/NC(=O)c2nc(-c3ccccc3)cc(-c3ccccc3)n2)c1	?
CCOc1ccc(C(NC(=O)/C=C/c2ccco2)c2ccc(OC)c(OC)c2)cc1 (configuration not stated)	-27%
COc1cc(OC)cc(-c2nnc(Sc3ccc(C=O)cc3[N+](=O)[O-])o2)c1	14µM*
C=CCn1c(O)c(N=NC(=S)Nc2ccc(OC)c(Cl)c2)c2ccccc21	-19%
CCC(CO)NCc1ccc(OC2CCCC2)cc1 (configuration not stated)	-20%
CCOC(=O)CSc1nc(C2CC2)cc(-c2ccc(Cl)cc2)c1C#N	?
COc1ccc(C)cc1S(=O)(=O)Nc1cccnc1	-10%
COc1ccc(-n2c(NCCN(C)C)nc3sc4c(c3c2=O)CCCCC4)cc1	-6%
O=C(CSCc1cccc(Br)c1)N/N=C/c1ccc2c(c1)OCO2	-28%
COc1ccc(CCC(C)Nc2cccc(F)c2)cc1 (configuration not stated)	-18%
O=C(O)c1cc(-c2ccccc2Cl)n[nH]1	-20%
CNC(=S)NN(C)c1nc(C)cc(C)n1	-6%
Cc1ccc(S(=O)(=O)N2CCN(C(=O)CN3CCCC3)C2)cc1	6%
Cc1ccc(CNC(=O)C2CCCCC2C(=O)O)cc1 (configuration not stated)	-6%
CCc1ccc(S(=O)(=O)/N=C2/C=C(Sc3ncn[nH]3)C(=O)c3ccccc32)cc1	1.6µM*
O=C(c1ccc(CS(=O)(=O)c2ccc(Br)cc2)o1)N1CCN(C2CCCCC2)CC1	-11%
O=C(NCCN1CCCC1)c1ccc2c(c1)N(Cc1ccc(F)cc1)C(=O)c1ccccc1S2=O (configuration not stated)	1%
C=C(C)c1cccc(C(C)(C)NC(=O)N2CCOCC2)c1	-2%
CCC(C)(C)n1nnnc1C(c1ccc(C)cc1)N(Cc1ccco1)Cc1cccs1 (configuration not stated)	-14%
COc1ccc2nc(NC(=O)C3CCCN(S(=O)(=O)c4cccc5nonc45)C3)sc2c1 (configuration not stated)	-16%
O=C(c1ccc2c(c1)OCCO2)C1CCN(S(=O)(=O)c2ccc(F)cc2)CC1	-22%
Nc1nc(NC(=O)c2ccc(Cl)cc2)nn1-c1ccccc1	-12%
OC1(c2ccc3ccccc3c2)CCN(Cc2ccccc2)C1 (configuration not stated)	-8%
O=C(CSc1nc2ccccc2c(=O)[nH]1)N1CCN(S(=O)(=O)c2ccccc2)CC1	-1%
Cc1cc(C)c(C#N)c(SCC(=O)N2CCCCC2)n1	-27%
Nc1c(C(=O)c2ccc(Br)s2)oc2ccccc12	-23%
COc1ccc(CNc2ncncc2-c2ccccc2CN(C)C)c(OC)c1	-16%
CCOc1cc(/C=N/NC(=O)c2ccc(CN3CCOCC3)cc2)ccc1OCc1ccccc1	-9%
COCCCN1C(=O)C(=O)/C(=C(/O)c2ccc(OC)cc2)C1c1cccc(OC)c1 (configuration not stated)	-8%
Clc1ccccc1OCCn1ccnc1	3%
O=C(c1cccc(F)c1)N1CCC2(CCCN(c3ncccn3)C2)CC1	-16%
COc1cccc(C2C3=C(CC(C)(C)CC3=O)Nc3cc4c(cc32)OCO4)c1 (configuration not stated)	?
C/C(=N\NC(=S)Nc1c(C)cccc1C)c1cc2ccccc2o1	-7%
O=C(c1cccc(F)c1)N1CCC2(CCCN(C(c3ccccc3)c3ccccc3)C2)CC1	-7%
S=c1[nH]nc(-c2ccccc2)n1/N=C/c1cccs1	18µM*
O=C(COC(=O)c1cc(-c2ccncc2)nc2ccccc12)Nc1ccc2c(c1)OCO2	-20%
Cc1cc(NC(=O)CSc2ccc(-c3ccccc3)nn2)no1	-8%
COc1ccc(-c2nnc3sc(-c4ccc(Br)o4)nn23)cc1OC	-13%
Cc1noc(/C=C/c2ccco2)c1S(=O)(=O)N1CCC(C(=O)N2c3ccccc3CC2C)CC1 (configuration not stated)	-22%
CCc1ccc2oc(-c3cc(N=Cc4cccc(OC)c4O)ccc3O)nc2c1	-13%
N#Cc1c(-c2ccco2)nc(NCC2CCCO2)[nH]c1=O (configuration not stated)	-14%
O=S1(=O)N=C(Nc2ccc(S(=O)(=O)N3CCCCC3)cc2)c2ccccc21	?
CCCN(C(=O)c1ccco1)c1nnc(-c2ccncc2)s1	-12%
CCN1CCN(C(=O)c2sc3nc(C)nc(N4CCC(C)CC4)c3c2C)CC1	-4%
CCn1c(COc2cccc(C)c2)nnc1SCC(=O)CC(=O)Nc1ccccc1OC	-5%
NC(N)=NC(N)=NCCc1ccccc1	-5%&-15%&-8%
COCCn1c(C)cc(C(=O)COC(=O)c2cncc(Br)c2)c1C	-19%
COc1cccc(C(C(=O)NC(C)(C)C)N(C(=O)CCC(=O)Nc2cc(C)on2)C2CC2)c1OC (configuration not stated)	-2%
Cc1cccn2c(=O)c3cc(C(=O)N4c5ccccc5CC4C)n(C)c3nc12 (configuration not stated)	?
CCOC(=O)c1c(C)[nH]c2c1cc(O)c1ccccc12	-30%
Cc1nc2scc(-c3ccco3)c2c(=O)n1/N=C/N(C)C	-3%
Later entries
SMILES	HPGD inh
Cn1c(SCC(=O)Nc2ccccc2)nc(O)cc1=O	-8%
CCCn1c(SCCc2ccccc2)nc2c1c(=O)[nH]c(=O)n2C	-26%
Cc1ccc(C(=O)N2CCN(c3ccc(NC(=O)CSc4ccc(Cl)cc4)cc3)CC2)cc1	-7%
O=C(CNCCC1=CCCCC1)Nc1ccccc1N1CCCCC1	?
COc1nnc(-c2ccc(N3CCOCC3)c(NC(=O)C3CCCCC3)c2)c2ccccc12	-5%
Cc1cc(C)n(C(=O)c2ccc(S(=O)(=O)N3CCCC3)cc2)n1	-8%
COc1ccc(Nc2nnc(-c3ccc(C)cc3)c3ccccc23)cc1C(=O)N1CCCCC1	?
CN(C)C(=O)COC(=O)c1ccccc1Nc1ccc(SC(F)F)cc1	?
CCCNC(=O)c1noc2c1CCc1ccccc1-2	?
CCOc1ncccc1C(=O)OCC(=O)c1ccc(Cl)s1	20µM*
Cc1onc(-c2ccccc2)c1C(=O)N/N=C(\N)COc1ccc(Cl)cc1	-22%
N#Cc1c(/N=C/c2cc3ccccc3s2)sc2c1CCC2	-17%
CC1CC(=O)NN=C1c1ccc(N(C)C)c([N+](=O)[O-])c1 (configuration not stated)	-7%
Cc1cc(N2C(=O)CC(Cc3ccccc3)C2=O)no1 (configuration not stated)	-5%
COC(=O)[C@@]1(Cc2ccc(F)cc2)[C@H]2c3cc(C(=O)N(C)C)n(Cc4ccc(S(C)(=O)=O)cc4)c3C[C@H]2CN1C(=O)c1ccccc1	-17%
Cc1ccc(OCC(O)Cn2c(=N)n(CCN3CCCCC3)c3ccccc32)cc1 (configuration not stated)	-6%
CCCCn1nc(-c2ccccc2)c2nc3ccccc3nc21	-22%
COc1ccc(C(=O)NCc2ccc(-c3nc4ccccc4s3)cc2)cc1OC	-12%
CSc1nc(Oc2cccc(C(F)(F)F)c2)cc(C(F)(F)F)n1	-3%
CCCOC(=O)CCCCC1SCC(NC(=O)OC)C1NC(=O)OC (configuration not stated)	-9%
CCOC(=O)C1=C(C)N=C2c3ccccc3C(=O)C2C1c1ccccc1 (configuration not stated)	1%
CC(C)NC(=O)c1c2c(nc3ccccc13)CCCC2	-6%
CC(CN1CCOCC1)OC(=O)c1ccc2c(c1)OCCO2 (configuration not stated)	-16%
CCOC(=O)c1sc(NC(=O)c2ccncc2)c(C#N)c1C	14µM*
COc1ccc(C(=O)OCCCN(C)C)cc1OC	-6%
CC(C)CNC(=O)CN(C)S(=O)(=O)c1ccc(F)cc1	1%
O=C(CN1CCN(Cc2ccccc2Cl)C1=O)NC1CCCCCC1	-2%
COc1ccc(N(C(=O)Cn2nnc3ccccc32)C2(C(=O)NC3CCCC3)CCCCC2)cc1	-3%
CC(C)(C)n1nnnc1C(c1cccnc1)N1CCN(c2cccc(C(F)(F)F)c2)CC1 (configuration not stated)	-6%
C[n+]1cc[nH]c1SCC(=O)c1ccccc1	-8%
CCCCC(=O)Nc1ccc(C(=O)Nc2cc(C(F)(F)F)ccc2Cl)cc1	-7%
C/C(=N\NC(=O)Cc1cccc2ccccc12)c1ccncc1	1%
CCc1ccc(OCc2nnc(NC(=O)c3cccs3)s2)cc1	-6%
Cc1ccc(C(=O)/C=C/Nc2ccc3c(c2)OCO3)cc1	-8%
O=C1SC(SC(=Nc2ccccc2)Nc2ccccc2)C(=O)N1c1ccccc1 (configuration not stated)	-12%
COc1ccc2sc(SCCCS(=O)(=O)O)[n+](CCCS(=O)(=O)[O-])c2c1	?
Cc1cc(C(=O)OCC(=O)Nc2cc(S(=O)(=O)N3CCOCC3)ccc2Cl)c(C)o1	-7%
Cc1csc(C(C#N)C(=O)c2cc3ccccc3o2)n1 (configuration not stated)	-21%
O=C(OCc1nnc(-c2ccccc2)o1)c1cc(=O)c2ccccc2o1	-9%
O=C(NCCCN1CCOCC1)c1ccccc1-c1ccccc1	6%

A section from further up, as a working copy:
SMILES	HPGD inh
COc1ccc2sc(SCCCS(=O)(=O)O)[n+](CCCS(=O)(=O)[O-])c2c1	?
Cc1cc(C(=O)OCC(=O)Nc2cc(S(=O)(=O)N3CCOCC3)ccc2Cl)c(C)o1	-7%
Cc1csc(C(C#N)C(=O)c2cc3ccccc3o2)n1 (configuration not stated)	-21%
O=C(OCc1nnc(-c2ccccc2)o1)c1cc(=O)c2ccccc2o1	-9%
O=C(NCCCN1CCOCC1)c1ccccc1-c1ccccc1	6%

Three entries from above, reformatted.
HPGD inh	structure
1%	CCOC(=O)C1=C(C)N=C2c3ccccc3C(=O)C2C1c1ccccc1 (configuration not stated)
-6%	CC(C)NC(=O)c1c2c(nc3ccccc13)CCCC2
-16%	CC(CN1CCOCC1)OC(=O)c1ccc2c(c1)OCCO2 (configuration not stated)

Another view of some results above:
SMILES,HPGD inh
CCSC1=N/C(=C\c2ccc(C(=O)O)cc2)C(=O)S1,-24%
CCCNC(=O)c1noc2c1CCc1ccccc1-2,?
Nc1nnc(-c2ccc(Cl)cc2)s1,-18%
Nc1cc(N)nc(SCCOc2ccccc2F)n1,-21%
COc1ccc(C(=O)NCc2ccc(-c3nc4ccccc4s3)cc2)cc1OC,-12%

New compounds follow:
SMILES	HPGD inh
COc1ccc(C(=O)N(CC2CCCO2)C(C(=O)NC2CCCC2)c2ccc(Cl)cc2)cc1OC (configuration not stated)	8%
O=C(O)c1ccc(F)c(S(=O)(=O)Nc2ccccc2Cl)c1	-3%
O=C(Nc1nnc(C2CC2)s1)c1cc(S(=O)(=O)N2CCN(c3ccccc3)CC2)ccc1Cl	-10%
CCCCCC(=O)Nc1ccc2ccccc2c1	-15%
Cc1cc(NC(=O)CSc2ncccn2)no1	0%
